MLL AF4-AF9 inh = inhibitors of AF4 peptide binding to AF9, primary screen, biochemical, AlphaScreen, biotin-AF4 peptide, FLAG-AF9, single point; 350,000 compounds, 0.47% hits; inhibition, % at 10 µM; Protein AF-9 (Homo sapiens), P42568; AID 651704, 2012;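 active means every replicate reaching a set inhibition limit, whatever the replicate mean, cut at about 25% in these data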;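 further: 0% = plate neutral control median and 100% = total signal loss; the record names both 10 and 1 µM as test concentration; the first replicate is given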
Target sequence (P42568 whole entry, looked up): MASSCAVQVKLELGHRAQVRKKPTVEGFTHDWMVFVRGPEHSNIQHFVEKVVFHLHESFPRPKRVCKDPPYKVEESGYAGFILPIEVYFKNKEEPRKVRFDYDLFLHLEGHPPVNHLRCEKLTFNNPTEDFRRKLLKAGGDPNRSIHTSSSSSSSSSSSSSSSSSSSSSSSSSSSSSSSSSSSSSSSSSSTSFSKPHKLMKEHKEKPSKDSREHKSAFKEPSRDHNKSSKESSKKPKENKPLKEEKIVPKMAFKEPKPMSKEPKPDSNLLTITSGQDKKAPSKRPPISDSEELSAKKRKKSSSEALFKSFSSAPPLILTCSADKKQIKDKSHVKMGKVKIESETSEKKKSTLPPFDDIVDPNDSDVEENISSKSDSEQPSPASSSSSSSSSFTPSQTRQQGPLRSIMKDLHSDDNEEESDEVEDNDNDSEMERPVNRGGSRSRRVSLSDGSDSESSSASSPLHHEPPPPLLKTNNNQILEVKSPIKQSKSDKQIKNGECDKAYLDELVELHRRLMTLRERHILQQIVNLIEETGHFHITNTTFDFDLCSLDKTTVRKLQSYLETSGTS
T cruzi repl = inhibitors of intracellular T. cruzi growth, primary screen, luminescence, NIH3T3 host cells; T. cruzi beta-gal in NIH3T3, 90 h; inhibition, % (test concentration not listed); 300,000 compounds, 1.4% hits; AID 1885, 2009;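 active means mean inhibition across valid replicates above about 55%, limit read from the data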;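 further: signal also drops with host cell toxicity which is not excluded here; 0% = plate median of DMSO wells and 100% = zero luminescence signal; higher percent means less beta-gal luminescence so fewer parasites; stock transfer was 50 nL into about 50 µL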
UCH37 inh = inhibitors of human UCH37 deubiquitinase, primary screen, biochemical, Ub-AMC cleavage, fluorescence; AID 588478, 2011; 330,000 compounds, 0.33% hits; purified proteasome/UCH37; inhibition, % (test concentration not listed);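 active means mean of two replicates above 20%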;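 further: 0% = compound-free wells with enzyme and 100% = wells lacking proteasome; stock transfer was 100 nL into about 20 µL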
Target sequence (Q9Y5K5 whole entry, looked up): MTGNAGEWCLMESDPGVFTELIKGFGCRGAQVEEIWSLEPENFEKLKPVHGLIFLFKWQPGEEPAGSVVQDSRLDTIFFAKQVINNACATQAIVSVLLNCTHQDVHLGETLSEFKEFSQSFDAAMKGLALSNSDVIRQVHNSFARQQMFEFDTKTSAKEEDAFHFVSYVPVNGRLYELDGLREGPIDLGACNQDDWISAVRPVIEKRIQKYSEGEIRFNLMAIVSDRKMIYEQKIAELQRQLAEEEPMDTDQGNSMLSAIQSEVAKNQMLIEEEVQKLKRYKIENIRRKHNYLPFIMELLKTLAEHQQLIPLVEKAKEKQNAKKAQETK
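Assay system: Proteasome-bound UCH37. Buffer or medium: pH 7.4 Tris-HCl (50 mM) with ovalbumin, ATP-MgCl2, DTT. Incubation: 30 min preincubation with enzyme, 25 min cleavage at room temperature. Measured by: fluorescence, ex 355 nm, em 460 nm. Read-out basis: percent inhibition. Control set: wells without proteasome as full block, compound-free enzyme plus substrate as uninhibited.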
Beta cell apopt = inhibitors of cytokine-induced beta cell apoptosis, primary screen, luminescence | AID 435005, 2010 | INS-1E cytokine-induced death, ATP luminescence, 48 h; percent of positive-control rescue, neutral wells zero | protection from apoptosis, % (concentration not given with the values) | 300,000 compounds, 0.8% hits;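 active means all replicates at 75% or more, or half of them and the mean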;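 further: 0% = cytokine-treated negative control wells and 100% = positive control rescue; higher means more ATP so stronger rescue from cytokine killing; wells of about 40 µL received 100 nL stock; the first replicate is given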
Ecoli rRNA inh = reduced GFP signal of wild-type E. coli, primary screen, bacterial rRNA inhibitor project, GFP/RFP fluorescence, OD600, single point; E. coli WT GFP vs humanized-ribosome RFP mutants, 24 h; active compounds read low; DMSO median 0, no signal -100; GFP signal change (wild-type ribosome), % (no concentration beside the values); 350,000 compounds, 1.6% hits; AID 720706, 2013;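 active means significant combined selectivity score with lowered wild-type GFP, culture density cut under 30%, mutant RFP and density less affected; inactive means any of these conditions unmet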; further: one replicate is shown; some compounds called inactive have numbers as strong as hits
E coli growth = E. coli growth inhibition, primary screen, OD600; Escherichia coli growth, 23 h; active compounds read low; 330,000 compounds, 0.21% hits; AID 1053175, 2014; OD600 absorbance (concentration not given with the values);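 active means OD600 absorbance below the run mean of sample wells minus 3.6 SD, in any replicate, cut at about 0.56 in these data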;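 further: stock transfer was 300 nL into about 60 µL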
FGF22 binding = binders of human FGF22 protein, primary screen, FGF22 synaptogenesis inhibitor project, biophysical, thermal shift, single point. Fibroblast growth factor 22 (Homo sapiens), Q9HCT0. recombinant FGF22 thermal shift, SYPRO orange fluorescence; percent of sucrose octasulfate shift, DMSO zero. calls only at 9.99 µM. 340,000 compounds, 1.5% hits. AID 651658, 2012;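 active means melting point raised past a set limit in the mean and every replicate; three in four hits are not shown here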
Target sequence (Q9HCT0 whole entry, looked up): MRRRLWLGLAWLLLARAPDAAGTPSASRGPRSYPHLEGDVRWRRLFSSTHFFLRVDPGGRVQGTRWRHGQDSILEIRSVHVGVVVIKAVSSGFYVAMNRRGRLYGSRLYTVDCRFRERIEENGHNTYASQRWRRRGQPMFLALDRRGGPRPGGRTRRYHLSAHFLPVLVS
A1 inh = caspase 3/7 activation in MEF A1-2A-BIM cells, primary screen, A1 inhibitor project, cell-based, luminescence, HTS | Caspase-Glo 3/7 luminescence, 3 h; percent of clofoctol response, vehicle zero | caspase activation, % (test concentration not listed) | 330,000 compounds, 0.066% hits;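 active means over half of replicate activation scores above 10%, or exactly half above 10 with the replicate mean above 10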;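 further: wells of about 30 µL received 50 nL stock; many hits fall short of the cut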
Ecoli rRNA inh OD600 = further read-out of Ecoli rRNA inh, marked with its call; OD600 change, %; measured here: OD600 growth;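 optical density of the mix in the first replicate; 0 = DMSO median and -100 = no signal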
Ecoli rRNA inh RFP = second read-out of Ecoli rRNA inh, no call of its own (marks repeat the call); RFP signal change, %; measured here: RFP humanized mutant strains;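 first replicate; 0 = DMSO median and -100 = no signal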
* marks the source's active call; other numbers are inactive results; i = inactive; / = not tested or not shown; & = joins results of further samples. Not all compounds are listed (hit frequency here may not be typical).

no.	SMILES	MLL AF4-AF9 inh	T cruzi repl	UCH37 inh	Beta cell apopt	Ecoli rRNA inh	Ecoli rRNA inh OD600	Ecoli rRNA inh RFP	E coli growth	FGF22 binding	A1 inh
1	CCN(c1cc(C)cc(C)c1)S(=O)(=O)c1nnc(NC(=O)c2ccco2)s1	0.5	-18	-1.0	4	1	12	7.3	0.7	i	0.7
2	COc1ccc(N/C=C\C(=O)c2ccc3c(c2)OCO3)cc1OC	2.3	0	3.8	1	6	1	2.0	0.74	i	-3.7
3	CSC(=NS(=O)(=O)c1ccc(N)cc1)NS(=O)(=O)c1cccs1	-2.3	/	1.3&-1.3	/	3	5	1.0	0.69&0.76	i	/
4	Cc1cc(NC(=O)CSCC(=O)N2CCN(c3cccc(C(F)(F)F)c3)CC2)no1	0.9	-12	2.3	2	-20	-18	1.0	0.66	i	-1.2
5	Cc1ccc(-c2nn(-c3ccccc3)cc2/C=N/n2c(-c3ccncc3)n[nH]c2=S)cc1	0.9	-3	/	0	13	6	0.4	/	i	-0.2
6	CCN(CC)c1ccc(NC(=O)COc2ccccc2C)cc1S(=O)(=O)Nc1ccccc1OC	1.9	5	5.4	-15	10	2	-2.1	0.74	i	-0.5
7	Cc1ccc(C)n1-c1ccc(N2CCOCC2)c([N+](=O)[O-])c1	5.3	12	7.3	-15	15	4	-0.1	0.71	i	0.4
8	COc1ccc(Nc2ncc3c(n2)CC(c2ccccc2)CC3=O)cc1 (centres undefined)	/	-29	-15	/	/	/	/	0.73	/	0.0
9	CC(C)C[C@H](NC(=O)c1cc2cc(Cl)ccc2n1C)C(=O)N1CCC(C(=O)O)CC1	-1.3	3	-1.2	-1	1	14	-0.1	0.67	i	0.9
10	CC1CCN(S(=O)(=O)c2ccc(NC(=O)CN3CCN(C)CC3)cc2)CC1	/	59*	-1.2	-2	/	/	/	0.65	/	1.3
11	O=[N+]([O-])c1ccc(N2CCNCC2)cc1NCc1cccnc1	11	14	7.5	-1	3	-3	2.3	0.68	i	0.7
12	CCn1c(CNC(=O)c2cccc(C)c2)nnc1SCC(=O)NC1=NCCS1	-2.0	-6	1.8	-1	5	7	-0.6	0.63	i	-1.6
13	Cc1ccc2[nH]c(=O)c(CN(Cc3nnnn3C3CCCC3)C3CCCCC3)cc2c1	/	-5	0.5	-4	/	/	/	0.67	/	0.4
14	NC(=O)CSc1nc2sc3c(c2c2ncnn12)CCCC3	/	10	-4.3	-9	/	/	/	0.72	/	-0.1
15	Cc1ccc(CCNC(=O)CS(=O)Cc2nc(-c3cccc(C)c3)oc2C)cc1 (centres undefined)	3.3	12	1.1	-5	-6	-27	15	0.75	i	0.3
16	COc1ccc(Cl)cc1NC(=O)CSc1nnc(COc2ccccc2)n1N	/	-11	3.6	-13	/	/	/	0.68	/	-0.6
17	Cc1ccc(N2C(=O)C3CC(c4ccccc4)=C4C5C=CC(C6C(=O)N(c7ccc(C)cc7C)C(=O)C56)C4C3C2=O)c(C)c1 (centres undefined)	/	59*	2.6	-1	/	/	/	0.71	/	-0.5
18	CCCc1nc(S(=O)(=O)Cc2ccc(Cl)cc2Cl)n[nH]1	/	-4	-0.2	-6	/	/	/	0.71	/	0.6
19	O=C(CCC1CCCN(C(=O)c2ccc3c(c2)OCO3)C1)N1CCN(c2ccccn2)CC1 (centres undefined)	0.3	10	-1.2	0	-6	-5	0.6	0.67	i	1.8
20	CN(CC(=O)Nc1ccc(F)cc1)CC(=O)N1CCCC1	0.9	/	1.1	-7	7	17	-3.2	0.64	i	-0.3
21	c1ccc(-c2csc(N3CCN(c4ccccn4)CC3)n2)cc1	/	9	7.5	3	-19	-37	-3.0	0.66	/	0.4
22	CC(C)(C)C1CCC(OC(=O)CN2CCOCC2)CC1 (centres undefined)	/	5	2.9	-1	/	/	/	0.76	/	-0.7
23	Cc1nn(C(=O)CCC(=O)NCc2ccc(OC(C)C)cc2)c2ccccc12	0.7	-11	3.0	/	7	6	-1.0	0.69	i	/
24	CC(C)CCn1nnnc1C(c1ccc(N(C)C)cc1)N1CCN(C(=O)c2ccco2)CC1 (centres undefined)	/	11	0.7	/	/	/	/	0.73	/	0.8
25	CC1CCN(CC(O)COc2ccc(-c3ccccc3)cc2)CC1 (centres undefined)	6.5	18	3.6	/	-9	-23	11	0.57	i	-0.2
26	COc1cc(-c2nn3c(C4CCCCC4)nnc3s2)cc(OC)c1OC	/	-4	2.6	3	/	/	/	0.69	/	0.1
27	COc1ccc(CNC(=O)c2cc(S(=O)(=O)N3CCOCC3)cn2C)cc1	3.3	-5	1.0	-3	-4	11	-3.3	0.77	i	1.1
28	CCN(CC)C(=O)C(=O)Nc1ccc(Oc2ccccc2)cc1	0.0	14	0.8	-1	-16	-17	-0.9	0.65	i	-0.6
29	COc1cccc(-c2nnc(-c3ccc(C(F)(F)F)cc3)o2)c1	/	-6	1.3	0	/	/	/	0.66	/	-0.9
30	O=C1NC(=O)/C(=C\c2cn(Cc3ccccc3F)c3ccccc23)N1	-4.3	-13	-1.1	-6	-3	3	3.4	0.73	i	0.2
31	Cc1ccc(C)c(N=C2CCCN2Cc2ccccc2)c1C#N	/	15	0.8	6	/	/	/	0.59	/	0.2
32	COc1ccccc1CCNC(=O)c1cc(C2CC2)nc2c1cnn2C(C)C	-2.6	/	-5.1	/	-17	-27	-2.2	0.7	i	/
33	CCOC(=O)c1ccc(Nc2ccc(-c3ccc(OC)c(OC)c3)nn2)cc1	/	29	6.2	22	/	/	/	0.67	/	-0.1
34	CCOC(=O)C1=C(c2cccc(F)c2)NC(=S)NC1C (centres undefined)	/	-13	2.3	-4	/	/	/	0.73	/	0.0
35	CN1C(=O)/C(=C\c2ccccc2F)Sc2ccc(C(=O)NC3CCN(Cc4ccccc4)CC3)cc21	11	61*	/	/	-58	-68	-12	/	i	0.5
36	Cc1ccc(-c2nnn(CC(=O)N(c3ccccc3)C(C(=O)NC(C)(C)C)c3cccs3)n2)o1 (centres undefined)	/	-7	3.1	-3	/	/	/	0.7	/	-0.1
37	CCCOc1ccccc1N1C(=O)CC(N2CCOCC2)C1=O (centres undefined)	/	/	1.5	-5	/	/	/	0.73	/	0.3
38	COc1ccc(CCNC(=O)COC(=O)Cc2ccccc2F)cc1	0.1	/	3.8	-3	-5	0	6.8	0.71	i	0.7
39	CCOc1ccc(CCNC(=O)CCS(=O)(=O)c2ccc(Cl)cc2)cc1OCC	-1.0	5	-3.0	-6	4	0	-0.7	0.72	i	0.7
40	CC(CCO)Nc1nc2c(c(=O)n(C)c(=O)n2C)n1Cc1cccc(Br)c1 (centres undefined)	/	1	-3.8	3	/	/	/	0.73	/	-0.5
41	Cc1ccc(/C=N/NC(=O)c2nnn(-c3nonc3N)c2C(C)C)o1	1.4	5	/	-4	1	0	4.7	/	i	1.0
42	CCCC(=O)Nc1ccccc1NC(=O)c1ccc2c(c1)OCO2	1.4	-5	3.9	/	-1	1	-1.3	0.66	i	1.1
43	Cc1c(Cl)c(C(=O)NC2C3CC4CC(C3)CC2C4)nn1C (centres undefined)	/	5	1.5	-1	/	/	/	0.73	/	0.5
44	Cc1ccc(C(C(=O)NCCc2ccccc2)N(C(=O)c2csnn2)C2CC2)cc1 (centres undefined)	4.0	4	6.6	5	-2	-16	4.7	0.64	i	1.0
45	COc1cc2c(cc1NC(=O)C(C)N1CCN(S(=O)(=O)c3ccccc3[N+](=O)[O-])CC1)oc1ccccc12 (centres undefined)	/	32	2.6	0	/	/	/	0.73	/	0.7
46	COc1ccc(CCNC(=O)c2cc(-c3ccccc3)c(N3CCOCC3)s2)c(OC)c1OC	-11	27	4.7	-2	-6	-4	-0.2	0.72	i	0.0
47	Cc1cc(Cl)ccc1OCCCC(=O)Nc1cccnc1	/	-9	1.8	-9	/	/	/	0.76	/	0.5
48	CNC(=O)COC(=O)c1ccc2c(c1)S(=O)(=O)c1ccccc1C2=O	1.8	-19	-0.1	/	-1	-5	-0.2	0.7	i	-0.3
49	COc1cc(C2CC(=O)Oc3cc4c(cc32)OCO4)cc(OC)c1OC (centres undefined)	1.9	/	1.2	/	4	0	-1.9	0.67	i	/
50	Cc1cc(C(F)(F)F)cc(NNC(=O)NC(=O)c2ccc(Cl)cc2)n1	0.7	-7	-1.3	3	3	13	-0.8	0.67	i	0.1

(cont.)
no.	SMILES	MLL AF4-AF9 inh	T cruzi repl	UCH37 inh	Beta cell apopt	Ecoli rRNA inh	Ecoli rRNA inh OD600	Ecoli rRNA inh RFP	E coli growth	FGF22 binding	A1 inh
51	COc1ccccc1C1=NOC(C)(c2nnc(-c3cccc(Cl)c3)o2)C1 (centres undefined)	3.5	-3	3.5	-6	-12	-35	-9.7	0.7	i	-0.5
52	Cc1nc(SCC(=O)Nc2cc(C)on2)c2c3c(sc2n1)CCCC3	/	19	0.8	2	/	/	/	0.69	/	0.1
53	CCOC(=O)N1CCN(S(=O)(=O)c2cc([N+](=O)[O-])ccc2C)CC1	1.1	4	-0.7	-1	10	5	1.8	0.65	i	0.6
54	CNC(=O)C1CCCN1S(=O)(=O)c1ccc(OC)cc1 (centres undefined)	/	-2	2.3	-13	/	/	/	0.73	/	-0.5

Of the compounds above, these have fluorine.
no.	SMILES	MLL AF4-AF9 inh	T cruzi repl	UCH37 inh	Beta cell apopt	Ecoli rRNA inh	Ecoli rRNA inh OD600	Ecoli rRNA inh RFP	E coli growth	FGF22 binding	A1 inh
4	Cc1cc(NC(=O)CSCC(=O)N2CCN(c3cccc(C(F)(F)F)c3)CC2)no1	0.9	-12	2.3	2	-20	-18	1.0	0.66	i	-1.2
20	CN(CC(=O)Nc1ccc(F)cc1)CC(=O)N1CCCC1	0.9	/	1.1	-7	7	17	-3.2	0.64	i	-0.3
29	COc1cccc(-c2nnc(-c3ccc(C(F)(F)F)cc3)o2)c1	/	-6	1.3	0	/	/	/	0.66	/	-0.9
30	O=C1NC(=O)/C(=C\c2cn(Cc3ccccc3F)c3ccccc23)N1	-4.3	-13	-1.1	-6	-3	3	3.4	0.73	i	0.2
34	CCOC(=O)C1=C(c2cccc(F)c2)NC(=S)NC1C (centres undefined)	/	-13	2.3	-4	/	/	/	0.73	/	0.0
35	CN1C(=O)/C(=C\c2ccccc2F)Sc2ccc(C(=O)NC3CCN(Cc4ccccc4)CC3)cc21	11	61*	/	/	-58	-68	-12	/	i	0.5
38	COc1ccc(CCNC(=O)COC(=O)Cc2ccccc2F)cc1	0.1	/	3.8	-3	-5	0	6.8	0.71	i	0.7
50	Cc1cc(C(F)(F)F)cc(NNC(=O)NC(=O)c2ccc(Cl)cc2)n1	0.7	-7	-1.3	3	3	13	-0.8	0.67	i	0.1
